From PubChem BioAssay
eIF4H inh – inhibitors of RNA binding by human eIF4H. Q15056. eIF4H fluorescence polarization binding assay. inhibition, % at 35 µM. 0.94% of 290,000 active;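 active = 50% or more with normal probe brightness, or confirmed in later tests; about a fifth of its hits are not listed in these tables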;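 note: calls also rest on retests at 20 µM and on dose response follow-up; 0% = protein and probe with vehicle and 100% = probe without protein; strong numbers were not always called active; many hits fall short of the cut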
Yeast UUG start – yeast start codon fidelity modulation. S. cerevisiae UUG-firefly luciferase reporter, luminescence/redox ratio. activity score, % at 18.7 µM. 0.13% of 350,000 active;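 active = replicate mean at a twofold rise or more, about +100% in these data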;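 note: firefly luciferase made from a UUG start codon reports start codon fidelity; reporter light over untreated wells divided by growth signal over untreated wells; some hits fall short of that in this replicate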
PABP FP inh – blocks human PABP binding to poly(A) RNA; fluorescence polarization; 1% of 290,000 active; inhibition, % at 35 µM; AID 2014;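 active = 50% or more with normal probe brightness, or confirmed in later tests; about a fifth of its hits are not listed in these tables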;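 note: calls also rest on retests at 20 µM and on dose response follow-up; controls were probe without protein and protein plus probe with vehicle; some compounds called inactive have numbers as strong as hits; many hits fall short of the cut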
Target sequence (P11940 whole entry, looked up): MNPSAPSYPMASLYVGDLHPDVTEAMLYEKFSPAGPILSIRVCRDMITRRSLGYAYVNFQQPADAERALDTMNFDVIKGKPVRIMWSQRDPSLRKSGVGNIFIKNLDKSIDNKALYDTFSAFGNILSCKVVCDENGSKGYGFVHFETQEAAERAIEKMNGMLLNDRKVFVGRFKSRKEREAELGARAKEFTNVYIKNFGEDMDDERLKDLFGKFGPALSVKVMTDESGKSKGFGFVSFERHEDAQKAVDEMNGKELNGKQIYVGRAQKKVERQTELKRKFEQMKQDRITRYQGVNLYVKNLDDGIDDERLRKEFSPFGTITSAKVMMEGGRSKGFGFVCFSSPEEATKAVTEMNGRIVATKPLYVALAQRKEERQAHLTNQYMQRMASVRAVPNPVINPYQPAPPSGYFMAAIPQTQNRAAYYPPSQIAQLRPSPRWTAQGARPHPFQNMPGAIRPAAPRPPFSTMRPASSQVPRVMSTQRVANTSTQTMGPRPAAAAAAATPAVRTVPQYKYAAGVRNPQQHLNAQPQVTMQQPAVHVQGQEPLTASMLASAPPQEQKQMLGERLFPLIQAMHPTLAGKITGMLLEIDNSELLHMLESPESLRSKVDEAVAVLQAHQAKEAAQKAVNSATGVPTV
MT1-MMP act inh – inhibitors of human MT1-MMP activation | P50281 | HT1080 RFP-PRO-GFP cells, GFP/RFP ratio fluorescence, overnight; percent of plate control window, DMSO zero | GFP/RFP ratio change, % at 20 µM | 0.061% of 360,000 active | AID 651647;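 active = GFP/RFP ratio change of at least 30% with cell ATP level not reduced by more than half and red fluorescence within 50% of control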; note: strong numbers were not always called active
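Compound: 20 µM single dose, 1% DMSO / System: HT1080 RFP-PRO-GFP cells / Controls: DMSO and RFP-L50D-GFP cell wells / Read-out basis: GFP/RFP fluorescence ratio / Schedule: overnight compound exposure at 37 °C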
Rce1 inh – blocks yeast Ras-converting enzyme; 0.27% of 290,000 active; AID 2563; Q03530; yeast membranes, quenched prenylated peptide cleavage fluorescence; calls only;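 active = fall in fluorescence gain of 50% or more versus controls, with final raw signal at or below 3038400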;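 note: plate controls were neutral control wells for no effect and wells lacking membranes for full effect; tested at 10 µM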
Target sequence (Q03530 whole entry, looked up): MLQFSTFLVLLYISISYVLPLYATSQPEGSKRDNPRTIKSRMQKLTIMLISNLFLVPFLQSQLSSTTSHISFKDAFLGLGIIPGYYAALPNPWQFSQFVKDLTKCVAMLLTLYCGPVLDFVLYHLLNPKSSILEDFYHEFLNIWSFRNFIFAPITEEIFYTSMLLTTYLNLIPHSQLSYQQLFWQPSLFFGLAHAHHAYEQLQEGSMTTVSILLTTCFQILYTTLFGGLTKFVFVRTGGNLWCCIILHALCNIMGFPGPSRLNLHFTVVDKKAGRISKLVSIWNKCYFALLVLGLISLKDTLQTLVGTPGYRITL
HIV Env fusion – blocks HIV Env-driven cell-cell fusion; HeLa-JRFL Env/CEM21 cell fusion, luciferase; inhibition, % at 12.3 µM; 1.1% of 360,000 active; AID 651610;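 active = mean replicate inhibition score of at least 50 and every replicate individually at or above 50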;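 note: 0% = plate neutral controls and 100% = maraviroc near 300 nM; one replicate is shown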
CSC inhib – cancer stem cell inhibition. cancer stem cell-like cells viability, luminescence. 1.1% of 300,000 active. inhibition, % at 7.5 µM;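 active = mean at 75% or more and at least half the replicates too; tested in HMLE shEcad cells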;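 note: 0% = median of negative and 100% = median of positive control wells; the first replicate is given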
MT1-MMP act inh RFP – also measured in MT1-MMP act inh; calls as there; RFP signal change, %; measured here: RFP expression control read;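 0 = vehicle wells; hits needed this value within 50% of zero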
An asterisk follows results filed as active; i = inactive; x = not tested or not shown; & = joins results of further samples.

SMILES	eIF4H inh	Yeast UUG start	PABP FP inh	MT1-MMP act inh	MT1-MMP act inh RFP	Rce1 inh	HIV Env fusion	CSC inhib
Cc1ccc(S(=O)(=O)N2CCC(C(=O)OCC(=O)NCc3cccc(Cl)c3)CC2)cc1C	x	-5	x	1	2	x	x	-10
CCOc1ccc(N(CC(=O)NC(C)(C)C)S(=O)(=O)c2c(C)noc2C)cc1	-4	-12	26	1	4	i	-11	-1
COC(=O)C1OC(OC2CC[C@]3(C)C(CC[C@@]4(C)[C@@H]3CC=C3[C@@H]5CC(C)(C)CC[C@]5(C(=O)OC5OC(CO)C(O)C(O)C5O)CC[C@]34C)C2(C)C)C(O)C(O)C1O[C@H]1OCC(O)C(O)C1O (stereo partly specified)	x	12	x	-2	0	x	x	18
CCC(NC(=O)c1ccccc1Br)c1ccccc1 (stereo unspecified)	-15	x	3	4	3	i	-19	1
Cn1c(=O)cc(Nc2ccccc2)[nH]c1=O	-1	-25	-1	2	1	i	0	-1
COc1cc(NC(=O)OCc2ccccc2)c2ncccc2c1	x	-19	x	-5	1	x	4	x
Nc1cccc(-c2nc3ncccc3o2)c1	-1	-4	6	3	2	i	-26	6
COc1ccccc1S(=O)(=O)Nc1cc(C)nn1-c1ccc(C)cc1	-6	-5	5	1	3	i	-6	29
Cc1ccccc1N1C(=O)N(c2cccc(C(F)(F)F)c2)C2CS(=O)(=O)CC21 (stereo unspecified)	-2	-2	14	-4	1	i	-32	-11
N/C(=N\O)c1ccc(Cl)cc1Cl	-1	-20	6	-2	-4	i	-3	3
Cc1oc(-c2ccccc2F)nc1CS(=O)(=O)CC(=O)N1CCOCC1	-2	-10	-1	3	1	i	-13	-1
CCCCCN(C(=O)CCC(=O)OCCOc1ccc(OCC)cc1)c1c(N)n(CCCC)c(=O)[nH]c1=O	x	x	x	-9	-8	i	11	3

Fetched by structure from the list above (5):
SMILES	eIF4H inh	Yeast UUG start	PABP FP inh	MT1-MMP act inh	MT1-MMP act inh RFP	Rce1 inh	HIV Env fusion	CSC inhib
CCOc1ccc(N(CC(=O)NC(C)(C)C)S(=O)(=O)c2c(C)noc2C)cc1	-4	-12	26	1	4	i	-11	-1
Cn1c(=O)cc(Nc2ccccc2)[nH]c1=O	-1	-25	-1	2	1	i	0	-1
COc1ccccc1S(=O)(=O)Nc1cc(C)nn1-c1ccc(C)cc1	-6	-5	5	1	3	i	-6	29
Cc1oc(-c2ccccc2F)nc1CS(=O)(=O)CC(=O)N1CCOCC1	-2	-10	-1	3	1	i	-13	-1
CCC(NC(=O)c1ccccc1Br)c1ccccc1 (stereo unspecified)	-15	x	3	4	3	i	-19	1

Further entries follow:
SMILES	eIF4H inh	Yeast UUG start	PABP FP inh	MT1-MMP act inh	MT1-MMP act inh RFP	Rce1 inh	HIV Env fusion	CSC inhib
COc1ccccc1NC(=O)N(C)C[C@@H]1OCc2cnnn2CCCC(=O)N([C@@H](C)CO)C[C@@H]1C	x	-13&-6	x	-2	0	x	-7	x
Cc1ccc(C=Nc2ccc(N(C)C)cc2)o1	-8	-41	1	28	14	i	x	15
CC(C)c1ccc(OCC(=O)Nc2ccccc2C(=O)N2CCOCC2)cc1	-1	-18	6	2	-2	i	-17	-41
COc1cccc(-c2nnc(NC(=O)c3ccc(S(=O)(=O)N4CCOCC4)cc3)o2)c1	18	-27	4	-5	0	x	x	-9
CN(C(=O)c1ccc(NC(=O)Cc2ccc(NC(=O)C3CCN(C(=O)C4CC4)CC3)cc2)cc1)C1CCCC1	x	21	x	0	4	x	3	x
Nc1[nH]c(=S)[nH]c(=O)c1-c1ccccc1	8	-12	-5	6	3	x	x	-12
O=C(COc1ccc(Cl)cc1)Nc1ccc(C(=O)O)cc1NC(=O)COc1ccc(Cl)cc1	5	-16	7	3	1	i	-5	6
CCOc1ccc(N(C)Cc2cc(=O)oc3ccc(OC)cc23)cc1	5	-6	14	-2	-7	i	-1	-1
CN1CCN(C(=O)C23CCC(C)(C(=O)C2Br)C3(C)C)CC1 (stereo unspecified)	-1	x	-2	0	6	i	-20	-9
C/C(=N\NC(=O)Cc1ccccc1)c1cccs1	6	-14	0	-1	-1	i	x	-14
O=C(/C=C/c1ccccc1)N/C(=C/c1ccccc1)C(=O)NCCCO	-1	x	3	-3	0	i	x	-1
Cc1cccc(C)c1NC(=S)N(CCCN1CCN(C)CC1)Cc1cccs1	-5	x	7	-4	-1	i	-4	-5

Two entries from above, comma-delimited:
SMILES,eIF4H inh,Yeast UUG start,PABP FP inh,MT1-MMP act inh,MT1-MMP act inh RFP,Rce1 inh,HIV Env fusion,CSC inhib
C/C(=N\NC(=O)Cc1ccccc1)c1cccs1,6,-14,0,-1,-1,i,x,-14
O=C(/C=C/c1ccccc1)N/C(=C/c1ccccc1)C(=O)NCCCO,-1,x,3,-3,0,i,x,-1

Later entries.
SMILES	eIF4H inh	Yeast UUG start	PABP FP inh	MT1-MMP act inh	MT1-MMP act inh RFP	Rce1 inh	HIV Env fusion	CSC inhib
C1CCN(CCCNC2C3CC4CC(C3)CC2C4)C1 (stereo unspecified)	-2	8	-8	-3	0	i	-4	-15
CCOCCCNC(=O)CCc1nnc2ccc(N3CCCCC3)nn12	-4	-16	3	-1	3	i	x	9
O=C(N/N=C/c1ccccc1)c1cc(=O)[nH]c2ccccc12	-4	-13	4	2	3	i	-1	-3
Cc1cccc[n+]1CC(=O)Nc1ccc([N+](=O)[O-])cc1	-1	-17	-4	-4	1	i	-9	-15
COc1ccc(C2CC(c3ccccc3O)=NN2C(=O)c2ccccc2)cc1OC (stereo unspecified)	-10	-9	9	-3	-4	i	-6	0
Cc1cc(OCC(=O)Nc2ccc(S(=O)(=O)N3CCN(C)CC3)cc2)cc(C)c1Cl	6	60	-13	2	-3	i	x	7
CCN1C(=O)[C@H]2[C@H]3CN=C(SCC4CC4)N3[C@@](CC)(C(=O)OC)[C@H]2C1=O	x	-11	x	1	5	x	-10	x
Cc1cc(NC(=O)CSCC(=O)N(C)Cc2ccc(Cl)cc2Cl)no1	x	-19	x	1	-5	i	-25	-18
COc1ccc2cc(C(c3nnnn3Cc3ccc(F)cc3)N3CCCCCC3)c(=O)[nH]c2c1 (stereo unspecified)	2	-8	28	-6	3	i	x	x
CCC(C(=O)NCCCN1CCN(C)CC1)n1nc(C)c2sc3ccccc3c2c1=O (stereo unspecified)	-7	0	2	-1	2	i	15	4
CCC1CCCCN1c1nc(-c2cccc(OC)c2O)nc2ccccc12 (stereo unspecified)	-11	-12	9	-8	-7	i	21	x
CCOc1ccc(CCNC(=O)C2CCCN(c3nn4c(=O)cc(C)nc4s3)C2)cc1OCC (stereo unspecified)	7	-3	-3	2	0	i	x	5
Cc1cc(N2CCN(S(=O)(=O)c3ccccc3)CC2)nc2c(C)cccc12	-16	-6	-2	-1	0	i	16	32
CCOC(=O)CN(C(=O)COc1nc(-c2ccccc2)cc(C)c1C#N)c1ccccc1	2	x	10	-1	-3	i	4	x
Cc1ccc(-c2nnn(CC(=O)N(c3cccc(F)c3)C(C(=O)NC3CCCC3)c3ccco3)n2)o1 (stereo unspecified)	-12	7	-7	3	-4	i	x	-16
Cc1cc(C)cc(C(=O)NC(CC(N)=O)c2ccc(NCC3CC3)c([N+](=O)[O-])c2)c1 (stereo unspecified)	0	-27	0	4	1	i	20	-18
O=C(Cc1ccc([N+](=O)[O-])cc1)NCc1ccccn1	-8	x	-3	1	6	i	7	-2
COC(=O)Cn1c(=O)c2c(nc3n2CCCN3Cc2ccccc2)n(C)c1=O	-5	-6	6	1	-2	i	-7	-6
CN1CCC(=NNC(=O)c2ccc(N(Cc3ccccc3Cl)S(C)(=O)=O)cc2)CC1	0	x	-9	3	5	i	-19	6
Cc1cccc(NC(=S)N2CCCC2)c1	-14	-20	6	2	4	i	3	-4
Nc1nc(SCC(=O)NC2CCCCC2)[nH]c(=O)c1-c1ccccc1	-12	-14	0	0	0	i	-84	-9
N/C(=N\c1nc2c(c(=O)[nH]1)CCC2)Nc1ccccc1C(F)(F)F	-3	-10	-8	12	1	i	x	-9
COc1ccc(Nc2oc(-c3cccs3)nc2C#N)cc1	-6	x	7	-1	0	i	x	x
CCOC(=O)C1CCN(C(=O)Cn2c(=O)oc3cc(S(=O)(=O)N4CCCC4)ccc32)CC1	-7	5	-5	-4	5	i	7	-5
CCOC(=O)N1CCN(CCC(=O)Nc2cc(C)ccc2C)CC1	1	-6	-2	-2	3	i	2	-4
COc1ccc(NC(=O)Cn2c(=O)n(CCC(=O)NCC3CCCO3)c(=O)c3cc(OC)c(OC)cc32)cc1 (stereo unspecified)	-2	-5	1	1	4	x	21	-15
O=C(NC(Cc1ccccc1)C(=O)O)c1ccco1 (stereo unspecified)	-2	x	-4	-2	1	i	0	2
O=C(OCc1ccccc1)c1ccccc1	x	-17	x	6	5	i	x	-3
Cc1sc(N/N=C/c2cc([N+](=O)[O-])ccc2O)nc1-c1ccccc1	8	x	-8	6	-1	i	1	15
CC(OC(=O)c1ccc2ccccc2n1)C(=O)c1ccccc1 (stereo unspecified)	-14	x	-6	-1	1	i	6	-3
CC(=O)NC(c1ccc(C(C)C)cc1)c1ccc2cccnc2c1O (stereo unspecified)	10	-13	12	4	-13	i	-7	109*
Cn1c(=O)n(CC(=O)N2CCOCC2)c2ccccc21	-4	x	1	3	5	i	x	-6
CCC1(C)Cc2ccccc2-c2nc(NCCO)[nH]c(=O)c21 (stereo unspecified)	-8	13	-7	5	1	i	x	-8
Cc1ccc(Nc2cc(C)nc(N3CCOCC3)n2)c(C)c1	-2	x	-13	3	-1	i	-5	-13
CCc1c(C)sc(NC(=O)c2cc(-c3ccco3)on2)c1C#N	-5	x	-3	5	1	i	-63	3
O=C(CCc1ccccc1)N1CCN(C(=O)CCc2ccccc2)CC1	x	-7	x	-1	-1	x	1	x
CC1CC(C)CN(CC(O)COC2CC(C)CC(C)(C)C2)C1 (stereo unspecified)	x	-3	x	1	4	x	-8	33
COc1ccc(-n2nc3c(c2NC(=O)CC(C)C)CS(=O)C3)cc1 (stereo unspecified)	-2	-13	-10	3	5	i	-3	-9
O=C(c1ccco1)N1CCN(Cc2nnnn2CC2CCCO2)CC1 (stereo unspecified)	-4	-3	6	2	6	i	5	-1
COc1cccc(CNC(=O)C2CCN(S(=O)(=O)c3cccc4nonc34)CC2)c1	11	-5	5	x	x	i	6	0
CCCNc1[nH]c(=O)n(C)c(=O)c1N=O	25	-18	21	5	7	i	x	1
CCOc1ccc(N/C=C/C(=O)c2ccc(OC)cc2)c([N+](=O)[O-])c1	13	-1	6	6	10	i	-154	-2
O=C1N[C@@H](c2ccccc2)COC(=O)[C@@H](Cc2ccc(F)cc2)CC/C=C/C[C@H]1CC(=O)N(CCO)Cc1ccccc1	x	5	x	-1	-9	x	-7	x
COc1ccc(-c2c(-c3ccc(O)cc3O)n[nH]c2C)cc1OC	-5	-12	-12	0	-1	i	x	x
CCN(CC)S(=O)(=O)c1cccc(NC(=O)CCSc2ccc(Cl)cc2)c1	-8	-10	2	-4	-9	i	-13	5
Cc1ccccc1-n1nnnc1-c1ccccc1	2	8	1	3	1	i	-14	-11
CCc1nc(SCC(=O)Nc2cc(C)on2)c2c(C)c(C)sc2n1	6	-7	2	1	4	i	x	26
CCCCOP(=O)(c1ccc(N(C)C)cc1)C(O)c1ccc(C(C)C)cc1 (stereo unspecified)	-17	-4	-9	-1	-5	i	52	1
Cc1ccc2c(c1)N(CC(=O)c1cccc(Cl)c1)C(=O)C(C)O2 (stereo unspecified)	1	-10	-1	-2	-5	i	38	3
C=CCSc1nnc(CCCCCN2C(=O)c3cccc4cccc(c34)C2=O)o1	-2	-16	2	1	0	i	12	10
Cc1ccc(NCC(=O)N=Nc2c(O)n(C)c3ccccc23)cc1	4	x	14	-1	1	i	-7	-16
Brc1ccc(-c2nnc3c4ccccc4nc(N4CCOCC4)n23)cc1	-5	-6	-7	-1	-4	i	-32	8
COc1cccc(NC(=O)C2CCN(S(=O)(=O)c3ccc4c(c3)OCCO4)CC2)c1	-7	7	0	5	4	i	-82	-3
Cc1ccc(N(C(=O)c2ccc3c(c2)OCO3)C2C=CS(=O)(=O)C2)cc1 (stereo unspecified)	-2	-3	10	-5	0	i	-47	-3
CCOC(=O)Cc1csc(NC(=O)COc2ccc(OC)cc2)n1	0	-11	0	1	2	i	1	3
